# CBX7 AlphaScr = CBX7 inhibition, primary AlphaScreen. O95931. AlphaScreen His6-CBX7 / biotin-H3K27me3 peptide binding; hits give low values. normalised signal (fraction of DMSO) (concentration not given with the values). hit rate 1.1% among 66,000. AID 1224903; in the data active = normalised signal below about 0.5;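 also: 100 nL library stock added to about 20 µL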
# Target sequence (O95931 whole entry, looked up): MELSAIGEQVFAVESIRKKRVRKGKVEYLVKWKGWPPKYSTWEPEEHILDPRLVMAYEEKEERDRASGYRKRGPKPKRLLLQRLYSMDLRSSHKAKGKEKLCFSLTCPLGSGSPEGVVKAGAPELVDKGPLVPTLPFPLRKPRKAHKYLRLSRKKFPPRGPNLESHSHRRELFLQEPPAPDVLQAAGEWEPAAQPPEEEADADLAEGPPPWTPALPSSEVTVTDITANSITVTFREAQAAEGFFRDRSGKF
# CBX7 AlphaScr z-score = recorded beside CBX7 AlphaScr, whose call it bears; z-score; measured here: z-score of CBX7 signal; some inactives read as strong as hits; reference of the scale not given here;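 same signal on another scale; lower means less binding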
# * marks the source's active call; other numbers are inactive results; & = joins results of further samples.
SMILES,CBX7 AlphaScr,CBX7 AlphaScr z-score
CCOc1ccc2c(c1)c(=O)c(S(=O)(=O)c1ccccc1)cn2Cc1ccccc1C,0.813,-3.58
O=C(Nc1cccnc1)Nc1ccc2snnc2c1,0.965,-1.39
CCOc1ccc(-n2ccnc2SCC(=O)Nc2cc(C)on2)cc1,0.91,-0.119
CCOC(=O)c1cnc2ccc(OC)cc2c1Nc1ccc(OC)cc1,0.578,-1.49
Cc1c(C(=O)N2CCCCCC2)oc2ccc(S(=O)(=O)N3CCCCCC3)cc12,0.624,-6.8
O=C(NCCc1ccccc1)C1CCCN(c2nnc(-n3cccc3)s2)C1 (stereo not given),0.967,-0.729
CC(C)c1ccc2oc(-c3ccc(Cl)c(NC(=O)c4ccccc4)c3)nc2c1,1.2,1.94
CCOc1ccc(CCNC(=O)C2CCCN(c3nc4ccccc4[nH]3)C2)cc1OCC (stereo not given),0.907,-1.08
CCOc1ccc(-c2cc(C(=O)N3CCCC3)c3ccccc3n2)cc1,1.06,1.55
Cc1ccc(S(=O)(=O)Nc2cccc(-c3cn4ccccc4n3)c2)cc1C,0.963,-1.63
CN(C)C(=O)c1ccc(NC(=O)Cn2nc(-c3ccccc3)c3ccccc3c2=O)cc1,1.14,1.65
Brc1ccc(Nc2nc(-c3ccncc3)nc3ccccc23)cc1,1.07,0.0675
Fc1ccc(-c2cc(C(F)(F)F)nc(-n3cc(Br)cn3)n2)cc1,1.06,1.62
COc1ccc(OC)c(CN2C(=O)c3ccccc3C2C(=O)NC2CCC(C)CC2)c1 (stereo not given),1.13,1.72
COCc1nc2ccccc2n1Cc1ccc(Cl)c(Cl)c1,1.03,1.19
CCN1CCN(c2ncc(C(=O)NC(C)C)c3ccccc23)CC1,1.47,0.948
CCOc1ccc(Cc2nc3cc(C)c(C)cc3n(C)c2=O)cc1,1.05,1.23
COCc1nnc(NC(=O)c2ccc(S(=O)(=O)N3CCCCCC3)cc2)o1,0.0663*,-1.62*
CCOC(=O)c1ccccc1NC(=O)Cn1ncc2c1-c1cc(C)ccc1OC2,1.1,2.63
CCc1ccccc1NC(=O)Cn1nc(Cc2cccnc2)c2ccccc2c1=O,0.958,-1.39
Cc1ccc(-c2cc3c(n2-c2cccc(Br)c2)CC(C)(C)CC3=O)cc1,0.88,-0.781
CC(=O)N1CCN(c2nc(-c3ccccc3)c3cc(C)ccc3n2)CC1,1.15,1.46
CCOC(=O)c1c(NC(=O)COc2ccccc2Br)sc2c1CCCC2,1.14,4.55
CC1CCCCC1NC(=O)C1c2cccn2CC(=O)N1c1cccc(F)c1 (stereo not given),1.12,1.36
CC(C(=O)O)C1Sc2ccccc2N(Cc2cccc(Cl)c2)C1=O (stereo not given),0.972,-0.703
CC1CC(C)CN(C(=O)CCNC(=O)Cn2ccc3ccccc3c2=O)C1 (stereo not given),0.989,-0.254
Cc1ccc(Cl)cc1NC(=O)c1csc2c1CCCC2,1.03,1.03
Cc1cccc2c3c([nH]c12)C(=O)N(C)CCC3,1.06&0.968,1.62&-1.21
COc1ccc(-n2nc3c(c2NC(=O)C(C)C)CSC3)cc1,0.985,-0.265
CN(C)S(=O)(=O)c1ccc(C(=O)Nc2nnc(-c3ccccc3Cl)s2)cc1,1.11,2.2
COc1ccc(-c2nnc(NC(=O)c3ccc(S(=O)(=O)N(C)Cc4ccccc4)cc3)o2)c(OC)c1,0.00137*,-16.8*
CCC(=O)N1CCc2cc(S(=O)(=O)N(CCc3ccccc3)Cc3ccccc3)ccc21,0.773,-2.49
COc1ccc(CCNC(=O)c2cc3sccc3n2Cc2ccc(F)cc2)cc1OC,0.843,-3.91
CCCN(C(=O)CCc1nc(-c2ccc(OC)cc2)no1)c1ccccc1F,0.872,-0.128
Cc1ccc2nc(-c3ccc(NC(=O)COc4ccc(Cl)cc4)cc3)sc2c1,1.07,0.124
Cc1ccc(OCc2nc(C#N)c(NCCc3ccccc3)o2)cc1,0.689,-1.94
COc1ccc(OC)c(NC(=O)c2c(NCc3cccc(F)c3)sc3c2CCCC3)c1,0.716,-14.7
Nc1nonc1-c1nc2ccccc2n1CC(=O)Nc1ccc2c(c1)OCCO2,0.984,-0.834
COc1ccc(C2CC(=O)N(CC(=O)NCC3CCCO3)c3ccccc3S2)cc1OC (stereo not given),0.815,-2.63
Cc1cc(C)c(S(=O)(=O)NCCc2c(C)[nH]c3ccc(OC(F)(F)F)cc23)cc1C,0.796,-3.13
CCCCNS(=O)(=O)c1ccc2nc(-c3cccnc3)cc(C(=O)NCCCN3CC(C)CC(C)C3)c2c1 (stereo not given),1.01,0.249
COc1cccc(NC(=O)c2c(Oc3ccc(F)cc3)nc(C)c(Cl)c2C)c1,1.23,6.46
Cc1ccc2nc(N3CCCCC3)nc(-c3ccccc3)c2c1,4.06,51.5
CCn1c(C(C)NC(=O)c2cccc(C)c2)nc2ccccc21 (stereo not given),0.97,-0.344
Fc1ccc(-c2nc3cnccn3c2NC2CCCC2)cc1,1.19,1.88
Cc1cc(N2CCC3(CC2)OCCO3)n2nc(C)c(-c3ccc(Cl)cc3)c2n1,1.1,4.42
CCOc1ccccc1C(=O)Nc1ccc2nc(N(CC)CC)cc(C)c2c1,1.25,2.76
O=C(c1cc2nc3c(c(C(F)(F)F)n2n1)CCc1ccccc1-3)N1CCOCC1,1.1,0.653
Clc1ccc(CNc2nnc(Cc3ccncc3)c3ccccc23)cc1,1.05,1.56
CCCn1c(CCCNC(=O)C(C)(C)C)nc2ccccc21,1.22,2.33
COc1ccc(S(=O)(=O)NCCc2c(C)[nH]c3ccc(C)cc23)cc1OC,0.631,-0.368
O=C(O)c1cc(-c2cccs2)nc2cc3c(cc12)OCCO3,0.913,-1.1
COCCNC(=O)CSCc1nc(-c2ccc(C)cc2)oc1C,1.05,0.956
O=C(NCCN=C1NS(=O)(=O)c2ccccc21)c1ccccc1F,0.969,-0.783
COCCn1c(SCC(=O)Nc2ccc(F)cc2)nnc1-c1c[nH]c2ccccc12,1.03,0.22
Cc1oc(-c2ccccc2)nc1Cn1c(SCc2cccc(F)c2)nc2ccncc21,0.932,-2.04
Cc1ccc2c(c1)C(c1ccc(F)cc1)N(C(=O)c1cccc(F)c1)CC(=O)N2 (stereo not given),0.785,-3.91
Cc1cc(Nc2ccccc2O)n2ncnc2n1,0.569,-5.71
CCOc1ccccc1C(=O)Nc1c2c(nn1-c1ccc(C)cc1C)CSC2,0.819,-3.14
c1ccc(OCC2=NNC(c3ccccc3)=Nc3ccccc32)cc1,1.04,1.32

# Whole records, quoted from the list. Order of values: CBX7 AlphaScr, CBX7 AlphaScr z-score
# O=C(O)c1cc(-c2cccs2)nc2cc3c(cc12)OCCO3 reads 0.913, -1.1
# Clc1ccc(CNc2nnc(Cc3ccncc3)c3ccccc23)cc1 reads 1.05, 1.56

# Carrying on:
SMILES,CBX7 AlphaScr,CBX7 AlphaScr z-score
O=C(NC(C(=O)Nc1cccc(Cl)c1)c1ccccc1)c1ccc(Cl)cc1 (stereo not given),1.14,1.9
CCOC(=O)c1cnc2cc(C(F)(F)F)ccc2c1Nc1cc(Cl)c(OC)cc1OC,0.925,-0.853
COc1cccc(CN2C(=O)c3ccccc3Sc3ccc(C(=O)N(C)Cc4ccccc4)cc32)c1,0.711,-4.43
COCCCNC(=O)c1nc(-c2cccc(OC)c2)oc1C,0.879,-1.45
Cc1ccc(NC(=O)c2oc3ccc(S(=O)(=O)N4CCOCC4)cc3c2C)cc1C,0.837,-2.24
O=C(Cn1ncc2ccsc2c1=O)N1CCC(Cc2ccccc2)CC1,0.89,-3.16
CCC(C)NC(=O)C1CC(=O)N(Cc2ccc(OC)cc2)C1 (stereo not given),1.09,0.181
O=C(Cc1c(C(=O)O)[nH]c2ccccc12)Nc1cccc(Cl)c1,0.974,-0.59
Cc1onc(-c2ccccc2Cl)c1C(=O)Nc1cc(Cl)ccc1Cl,1.02,0.378
O=C(c1cccc(NC2=NC3CS(=O)(=O)CC3S2)c1)N1CCN(Cc2ccccc2)CC1 (stereo not given),0.855,-1.58
CCOc1ccc(-c2nnc(Nc3ccc(C(N)=O)cc3)c3ccccc23)cc1,0.436*,-2.64*
COc1cc(-c2nc3ncccn3c2Nc2ccc(C)c(C)c2)ccc1O,0.917,-1.66
Cc1cccc(-c2nc(CSCC(=O)NCCc3ccccc3)c(C)o2)c1,0.901,-1.86
COc1ccccc1-c1nnc(SCc2ccc(C)cc2C)o1,1.04,1.52
COc1ccc(Nc2nnc(Cc3cccnc3)c3ccccc23)cc1OC,0.898,-2.01
COc1cc(C)c(S(=O)(=O)NCCc2c(C)[nH]c3c(Cl)cccc23)cc1C,0.996,-0.0967
C=CCn1c(C2CC(=O)N(c3ccc(C)cc3C)C2)nc2ccccc21 (stereo not given),1.15,1.05
Cc1ccc(-c2ccc(=O)n(CC(=O)NCCc3ccc(Cl)cc3)n2)cc1,1.03,1.36
COCCNc1nc(SCc2cccc(F)c2)nc2ccccc12,1.01,0.283
Cc1cc(C)c2nc(N3CCC(C(=O)NCc4ccccc4)CC3)sc2c1,1.04,0.676
CCOC(=O)c1cc(-c2ccccc2)n(CCC(=O)Nc2ccc(C)c(C)c2)c1C,0.993,-0.0789
O=C(Nc1ccc(Cl)cc1)C1CCCN1S(=O)(=O)c1cccc2cccnc12 (stereo not given),0.988,-0.398
O=C(CSc1nnc(-c2ccc(F)cc2)o1)N1CCCc2ccccc21,1.25,3.82
CC(=O)Nc1c(-c2ccccc2)nc2ccccn12,1.03,0.691
Cc1ccc(-c2cc(C(=O)Nc3cccc(Cl)c3C)c3ccccc3n2)cc1C,1.1,0.339
CCOCCCNC(=O)c1cc(=O)n(Cc2cccc(Cl)c2)c2ccccc12,0.994,-0.0458
O=C(CCC1CC(=O)Nc2ccccc21)NCCC1=CCCCC1 (stereo not given),0.997,-0.118
O=C(Cc1cccs1)Nc1c2c(nn1-c1ccc(F)cc1)CSC2,0.958,-1.17
O=C1C2C3C=CC(C4CC34)C2C(=O)N1c1cccc(Cl)c1 (stereo not given),1.12,0.783
CC1CCN(C(=O)c2cc3n(n2)C(C(F)(F)F)CC(c2ccc(Br)cc2)N3)CC1 (stereo not given),0.945,-1.07
COc1ccc(Cc2nnc(Nc3cccc(C)c3)[nH]c2=O)cc1,1.2,0.402
COc1ccc(CCNC(=O)CSCc2cnn(-c3ccccc3)c2-n2cccc2)cc1OC,1.05,2.04
CCN1CCCC1CNc1cc(C)nc2c(-c3ccccc3OC)c(C)nn12 (stereo not given),0.935,-1.62
CCC(=O)N1CCc2cc(S(=O)(=O)NCCOC)ccc21,0.991,-0.0382
CCc1ncc(C(O)c2cccc3ccccc23)n1C (stereo not given),1.02,0.273
Cc1ccccc1OCCCn1c(CCCO)nc2ccccc21,1.13,1.37
COc1cc(NC(=O)CSc2nc3nc(C)c(Cc4ccccc4)c(C)n3n2)cc(OC)c1,0.83,-1.83
O=C(Cn1c(-c2cncs2)nc2ccccc21)NCCc1ccccc1,0.966,-0.566
COc1ccc(C(=O)CSc2nnc(Cc3cc(=O)[nH]c(=O)[nH]3)n2-c2ccccc2)cc1,1.04,1.28
CCN(CCCNC(=O)c1cccc(NC2=NC3CS(=O)(=O)CC3S2)c1)c1ccccc1 (stereo not given),0.916,-0.916
Fc1ccc(C2CC(c3cccc(Br)c3)n3ncnc3N2)cc1 (stereo not given),0.824,-1.89
Cc1noc(/C=C/c2cccs2)c1S(=O)(=O)N1CCCC(C(=O)O)C1 (stereo not given),1.05,0.575
COC(=O)c1ccc(NC(=O)Cn2cnc3c(nnn3-c3ccc(OC)cc3)c2=O)cc1,0.907,-1.78
CC(C)NC(=O)c1ccc2c(c1)N(Cc1c(F)cccc1Cl)C(=O)c1ccccc1S2,0.879,-0.523
CC(NC(=O)C(=O)N1CCOCC1)C(c1cccs1)N1CCOCC1 (stereo not given),0.997,-0.0597

# 15 neighbouring entries out of the list so far, quoted:
SMILES,CBX7 AlphaScr,CBX7 AlphaScr z-score
O=C(Cc1cccs1)Nc1c2c(nn1-c1ccc(F)cc1)CSC2,0.958,-1.17
O=C1C2C3C=CC(C4CC34)C2C(=O)N1c1cccc(Cl)c1 (stereo not given),1.12,0.783
CC1CCN(C(=O)c2cc3n(n2)C(C(F)(F)F)CC(c2ccc(Br)cc2)N3)CC1 (stereo not given),0.945,-1.07
COc1ccc(Cc2nnc(Nc3cccc(C)c3)[nH]c2=O)cc1,1.2,0.402
COc1ccc(CCNC(=O)CSCc2cnn(-c3ccccc3)c2-n2cccc2)cc1OC,1.05,2.04
CCN1CCCC1CNc1cc(C)nc2c(-c3ccccc3OC)c(C)nn12 (stereo not given),0.935,-1.62
CCC(=O)N1CCc2cc(S(=O)(=O)NCCOC)ccc21,0.991,-0.0382
CCc1ncc(C(O)c2cccc3ccccc23)n1C (stereo not given),1.02,0.273
Cc1ccccc1OCCCn1c(CCCO)nc2ccccc21,1.13,1.37
COc1cc(NC(=O)CSc2nc3nc(C)c(Cc4ccccc4)c(C)n3n2)cc(OC)c1,0.83,-1.83
O=C(Cn1c(-c2cncs2)nc2ccccc21)NCCc1ccccc1,0.966,-0.566
COc1ccc(C(=O)CSc2nnc(Cc3cc(=O)[nH]c(=O)[nH]3)n2-c2ccccc2)cc1,1.04,1.28
CCN(CCCNC(=O)c1cccc(NC2=NC3CS(=O)(=O)CC3S2)c1)c1ccccc1 (stereo not given),0.916,-0.916
Fc1ccc(C2CC(c3cccc(Br)c3)n3ncnc3N2)cc1 (stereo not given),0.824,-1.89
Cc1noc(/C=C/c2cccs2)c1S(=O)(=O)N1CCCC(C(=O)O)C1 (stereo not given),1.05,0.575

# (listing goes on)
SMILES,CBX7 AlphaScr,CBX7 AlphaScr z-score
O=C1CN(C(=O)COc2ccc3ccccc3c2)C(c2ccc(F)cc2)c2cc(F)ccc2N1 (stereo not given),0.993,-0.0297
COc1ccc(CNC(=O)C2CCCN2)cc1OC (stereo not given),1.01,0.279
Cc1ccc(-c2nc3sccn3c2Nc2ccccc2C)cc1,0.586,-15.6
CCCCC1CCC(c2ccc(-c3ccc(OC(F)F)cc3)nc2)CC1 (stereo not given),1.19,2.46
CCS(=O)(=O)N1CCC(C(=O)NCc2ccc(F)cc2)CC1,1.09,1.33
Cc1cc(C)c(NC(=O)Nc2ccccc2)c(Cl)n1,1.02,0.067
Cc1nc2cc(-c3cccc(F)c3)nn2c(C)c1CCC(=O)NCc1ccc2c(c1)OCO2,1.01,0.076
CC1CCCCC1NC(=O)c1ccc2c(c1)N(Cc1ccc(F)cc1Cl)C(=O)CS2 (stereo not given),1.09,1.42

# Some of the compounds tested, so the mix of outcomes need not match the whole.
